GLS inhibitor: inhibitors of human glutaminase (GLS); GLS enzymatic activity, qHTS titration; hit rate 0.21% among 410,000; AID 624170; Potency, µM (doses to about 45.5 µM), inactives show at the top dose activity change, negative = inhibition, most hits filed as inhibitors; O94925; note: potency is the fitted concentration of half-maximal effect; % is set by controls: 0 for no effect and ±100 for the full control effect
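Glutamate formation by hKGA was monitored fluorometrically using coupled glutamate oxidase, HRP and Amplex Red. Substrate was added as 1 mM L-glutamine solution; incubation was 30 min at RT after an initial read.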
ERG-DNA inh: inhibitors of human ERG Ets domain-DNA interaction; Potency, µM (highest dose often 76.9 µM), for the others: top-dose FP activity, negative = inhibition, most hits filed as inhibitors; P11308; hit rate 0.028% among 370,000; fluorescence polarization, His-ERG Ets domain / labelled DNA; AID 624246; active = well fitted inhibition curve with a large enough effect in the polarisation, with a control signal flat; inconclusive = small, poorly fitted or top-dose-only effect, or effect the other way, or a change in a side signal; inactive = no such curve, though single readings can be large or run the other way; the % refers to the polarisation;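 note: polarization taken with two DNA probes labelled with fluorescein and Texas red; potency is the fitted concentration of half-maximal effect; % of control where 0% means no effect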
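His-tagged ERG Ets domain (1 uM in the protein solution; 300mM KCl, 50mM Tris-HCl, 1mM EDTA, 1mM DTT, pH 7.5) received compound, then a probe mix of 5 nM fluorescein-DNA and 100nM Texas-615-DNA. Fluorescence polarization was read for both dyes.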
HP1b chromo inh: blocks HP1-beta chromodomain binding to methylated histone tails; P83916; AlphaScreen HP1-beta / biotin-H3K9me3 peptide binding; Potency, µM (top dose mostly 114 µM), without a hit: at the top dose activity change, negative = inhibition, actives largely listed as inhibitors; hit rate 0.56% among 390,000; note: potency is the fitted concentration of half-maximal effect; nearly all actives have a fitted effect of over 70% in size; inactives centre near 23
Target sequence (P83916 whole entry, looked up): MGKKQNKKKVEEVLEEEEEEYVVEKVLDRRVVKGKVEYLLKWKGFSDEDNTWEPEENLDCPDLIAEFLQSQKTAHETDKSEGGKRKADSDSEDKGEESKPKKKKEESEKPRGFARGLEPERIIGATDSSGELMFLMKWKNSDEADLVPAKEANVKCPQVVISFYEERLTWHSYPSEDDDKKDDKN
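AlphaScreen: HP1-beta (50 nM) preformed 30 min with biotin-H3(1-18)K9me3 peptide (50 nM) in PBS pH 7.4, 0.01% Tween-20. Compound added for 30 min at RT, then streptavidin donor/nickel chelate acceptor beads (10 ug/mL) for 30 min.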
PI4K2A inh: blocks human PI4K2A kinase activity. purified PI4K2A, ADP-Glo luminescence, 1 h; hits give low values. activity change, negative = inhibition, % at 76.9 µM. hit rate 0.13% among 420,000. AID 1346378; in the data active = activity change below about -50%; inconclusive = mostly about -30% to -49%;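 note: -100% = wells without enzyme as full effect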
Target sequence (Q9BTU6 whole entry, looked up): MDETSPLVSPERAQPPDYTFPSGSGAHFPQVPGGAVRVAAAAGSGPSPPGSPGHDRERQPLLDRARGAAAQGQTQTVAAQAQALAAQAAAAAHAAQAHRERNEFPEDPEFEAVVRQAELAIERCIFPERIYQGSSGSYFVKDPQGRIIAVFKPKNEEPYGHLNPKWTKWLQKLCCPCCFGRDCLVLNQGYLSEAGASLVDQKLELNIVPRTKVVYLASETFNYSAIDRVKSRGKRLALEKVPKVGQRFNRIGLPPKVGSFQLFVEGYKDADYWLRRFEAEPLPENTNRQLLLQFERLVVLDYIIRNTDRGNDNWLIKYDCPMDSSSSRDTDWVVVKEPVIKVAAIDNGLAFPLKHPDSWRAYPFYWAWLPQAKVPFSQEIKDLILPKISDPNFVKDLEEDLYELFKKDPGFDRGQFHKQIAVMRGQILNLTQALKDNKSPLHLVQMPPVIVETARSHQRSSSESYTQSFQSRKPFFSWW
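PI4K2A activity was measured by ADP-Glo luminescence: enzyme (4 ug/mL stock) and phosphatidylinositol (1.2 mM stock) in Tris pH 7.5/MgCl2/EGTA/Triton X-100 buffer were reacted with ATP (300 microM stock) for one hour at ambient temperature.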
G9a inh: inhibitors of human histone lysine methyltransferase G9a; Q96KQ7; G9a H3K9 monomethylation, AlphaScreen, 2 h; Potency, µM (titrated, usually from 102 µM), for inactives: top-dose activity, negative = inhibition, usual class: inhibitors; hit rate 8.8% among 350,000; AID 504332; note: potency is the fitted concentration of half-maximal effect; % is set by controls: 0 for no effect and ±100 for the full control effect; nearly all actives have a fitted effect of over 75% in size
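Chemiluminescent proximity detection of H3K9 monomethylation, read after 10 min bead incubation in the dark. Reaction: 20 nM G9a, 500 nM biotin-H3K9 peptide, 20 uM SAM cofactor, 2 h, room temperature, following 15 min enzyme-compound preincubation.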
RGS4 inhibitor: blocks human RGS4-accelerated GTP hydrolysis. AID 504845. Transcreener GDP fluorescence polarization, RGS4-accelerated GTP hydrolysis. Potency, µM (doses to about 114 µM), inactives show at the top dose activity change, negative = inhibition, actives largely listed as inhibitors. P49798. hit rate 0.039% among 390,000; note: potency is the fitted concentration of half-maximal effect; % is set by controls: 0 for no effect and ±100 for the full control effect; nearly all actives have a fitted effect of over 75% in size; some results filed as inactive show a strong effect at the top dose
Target sequence (P49798 whole entry, looked up): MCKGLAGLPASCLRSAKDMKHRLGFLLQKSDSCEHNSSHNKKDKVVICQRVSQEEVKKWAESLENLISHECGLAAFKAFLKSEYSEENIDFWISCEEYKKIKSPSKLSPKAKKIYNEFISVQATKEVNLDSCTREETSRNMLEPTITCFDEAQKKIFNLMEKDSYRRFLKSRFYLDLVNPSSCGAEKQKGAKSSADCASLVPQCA
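MLSMR compounds (23 nl, pin-transferred) preincubated 10 min at room temperature with a 500nM (2x) first reagent, then RGS4 at 900nM (2x) plus Transcreener GDP mix added; fluorescence polarization (620/688 nm) read before and after 90 min at 30 °C.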
ALOX12 inh: ALOX12 (human) lipoxygenase inhibition | P18054 | purified 12hLO, xylenol orange hydroperoxide absorbance | Potency, µM (series often up to 108 µM), for inactives: top-dose activity change, negative = inhibition, usual class: inhibitors | hit rate 1.1% among 580,000; note: potency is the fitted concentration of half-maximal effect; % is set by controls: 0 for no effect and ±100 for the full control effect
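Hydroperoxide product was detected by ferrous iron/xylenol orange as the 573 to 405 nm absorbance ratio. Arachidonic acid at 40 uM (final) was turned over for 30 min at room temperature by 150 nM human 12hLO, pH 7.0 Hepes buffer, after 15 min compound preincubation.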
JMJD2A Tudor: blocks the human JMJD2A Tudor domain; hit rate 4.4% among 390,000; Potency, µM (top dose mostly 114 µM), for inactives: top-dose activity change, negative = inhibition, most hits filed as inhibitors; O75164; AlphaScreen JMJD2A-Tudor / H3K4me3 peptide binding; AID 504339; note: potency is the fitted concentration of half-maximal effect; % is set by controls: 0 for no effect and ±100 for the full control effect; nearly all actives have a fitted effect of over 50% in size
Numbers without * were called inactive; ? = inconclusive; · = no result given; & = joins results of further samples; [ ] = another dose, or the depositor's remark. Unless noted, calls come from the whole dose curve; as a rule, active = well fitted curve in the direction sought with a large enough effect; inconclusive = small, poorly fitted or top-dose-only effect, or another doubt; inactive = no such curve, though single readings can be large; an effect the other way counts as inactive or inconclusive. This is a subset. The share of hits here may be higher or lower than overall.

No.	Structure	GLS inhibitor	ERG-DNA inh	HP1b chromo inh	PI4K2A inh
1	Cc1nc(N2CCOCC2)nc(N2CCC(C)CC2)c1[N+](=O)[O-]	-3%	-2%	-7%	-3
2	O=C(NCCCn1ccnc1)c1ccc(N2CCCCCC2)c([N+](=O)[O-])c1	4%	1%	-33%	5
3	COc1cccc(CNC(=O)CCCn2ncn3c(cc4occc43)c2=O)c1	5%&-8%	-6%&-2%	14%&14%	1&2
4	Cc1cccc(C(=O)Nc2ccc(OCc3cc(=O)n4ccc(C)cc4n3)cc2)c1	1%	0%	17%[57 µM]	3
5	CCc1ccc(N2C(=O)C3ON(c4ccccc4)C(c4ccco4)C3C2=O)cc1 (stereo not drawn)	-14%	-4%	37%	-3
6	CCCCCOc1ccc(C(=O)Nc2ccc(N3CCOCC3)cc2N2CCOCC2)cc1	0%	2%	24%	-4
7	COc1ccc(NC(=O)CSc2nnc(-c3cccs3)n2-c2ccccc2)cc1	1%	-1%	27%	1
8	CN(C(=O)c1ccccn1)c1nnc(-c2ccccn2)s1	0%	5%	23%	1
9	Clc1ccc(-c2cn3c(n2)SCC3)cc1	-1%	5%	-20%	-1
10	N=c1c2c(-c3ccccc3)c(-c3ccccc3)oc2ncn1Cc1ccco1	-10%	3%	-23%	2
11	Cc1cc(N2CCN(c3ccc(F)cc3)CC2)nc2cc(O)ccc12	42%[activator]	-10%	-39%	0
12	COc1cccc(C(=O)NCC(c2cccs2)N2CCc3ccccc32)c1 (stereo not drawn)	17%	-8%	?	-3
13	Cc1ccccc1-c1ccc(C(=O)NCc2ccccc2)o1	4%	-3%	-22%	1
14	COC(=O)/C=C/c1oc2ccccc2c1C	1%	-1%	96%[activator]	-3
15	COc1ccc(-n2ccnc2SCC(=O)Nc2cccc(OC)c2)cc1	-2%	-1%	-11%[57 µM]	-8

No.	G9a inh	RGS4 inhibitor	ALOX12 inh	JMJD2A Tudor
1	·	22%	-22%	?
2	?	0%	5%	?
3	17%[0.0925 µM]	16%&-4%	-6%&-18%	-12%&-15%
4	15%[59 µM]	26%	6%	-9%
5	50µM*	27%	0%	-20%
6	2µM*	-21%	27%	-17%
7	14%	-3%	0%	-7%
8	71µM*	-30%	10%	-13%
9	?	-26%	1%	-33%
10	23%[0.501 µM]	-24%	?	?
11	79µM*	-8%	-26%	?
12	32µM*	-3%	?	?
13	45µM*	12%	-12%	-35%
14	99%[activator]	17%	4%	61%[activator]
15	-39%[59 µM]	-5%	3%	?

Screen by screen, quoted from above:
ERG-DNA inh, compounds 5–13: -4%, 2%, -1%, 5%, 5%, 3%, -10%, -8%, -3%
G9a inh, compounds 5–13: 50µM*, 2µM*, 14%, 71µM*, ?, 23%[0.501 µM], 79µM*, 32µM*, 45µM*

Following part:
No.	Structure	GLS inhibitor	ERG-DNA inh	HP1b chromo inh	PI4K2A inh
16	CC1CC(=O)N(c2ccc(NCCc3ccccc3)c([N+](=O)[O-])c2)C1=O (stereo not drawn)	-1%	10%	-19%	-3
17	Cc1nc2nc(SCC(=O)NCCc3ccc(Cl)cc3)nn2c(C)c1Cc1c(F)cccc1Cl	-5%	3%	24%	3
18	COc1ccc(/C=C/c2nc(C#N)c(N3CCC(C)CC3)o2)cc1OC	-5%	-1%	-3%	-3
19	O=C(/C=C/c1ccc(Cl)c([N+](=O)[O-])c1)Nc1ccc(NC(=O)c2ccco2)cc1	-1%	-6%	17%	5
20	CCn1c(SCC(=O)Nc2ccc3c(c2)OCCO3)nnc1-c1ccccn1	-5%	1%	23%	1
21	O=C(CC(n1cncn1)C(Cl)(Cl)Cl)c1ccc([N+](=O)[O-])cc1 (stereo not drawn)	3%	-7%	47%[activator]	9
22	NC(=O)C1CCN(C(=O)Cc2ccsc2)CC1	-3%	-13%	42%[activator]	5
23	CCOc1ccccc1NC(=O)CSc1nccn1-c1cccc(C)c1	-1%	-2%	-25%[57 µM]	-3
24	C/C(CCc1oc2ccc(Br)cc2c1-c1ccc(C)o1)=N/O	1%	-1%	2%	-2
25	CC1Cc2ccccc2N1CC(=O)c1c(N)n(Cc2ccccc2)c(=O)n(C)c1=O (stereo not drawn)	59%[activator]	-5%	?	5
26	CN1CCN(c2nc(-c3ccc(Cl)cc3Cl)nc3ccccc23)CC1	-16%	-1%	13%	-3
27	COc1ccc(-n2c(SCc3ccc(C#N)cc3)nnc2-c2ccccn2)cc1	-1%	12%	50%[activator]	8
28	COc1ccc(C(=O)/C=C2\NCCc3cc(OC)c(OC)cc32)cc1OC	-1%	16%	34%	-22
29	CCCSc1nnc2c(n1)OC(c1ccc(Br)s1)Nc1ccccc1-2 (stereo not drawn)	4%	1%	10%	3
30	O=c1cc(CN2CCN(c3ccccc3)CC2)c2c(ccc3ccccc32)o1	14%	-1%	14%	0

No.	G9a inh	RGS4 inhibitor	ALOX12 inh	JMJD2A Tudor
16	-13%	-8%	2%	-19%
17	-17%[59 µM]	1%	-15%	-24%
18	?	11%	-24%	?
19	15%	11%	?	-12%
20	?	8%	-3%	?
21	10µM*	?	0%	-30%
22	40µM*	-1%	15%	-6%
23	?	-14%	-23%	?
24	35µM*	?	?	-27%
25	40µM*	-5%	-19%	?
26	?	9%	30%[activator]	-30%
27	40µM*	-9%[11.4 µM]	-14%	-13%[57.1 µM]
28	15%[0.501 µM]	-32%	0%	?
29	7.1µM*	-21%	?	-25%
30	-21%[59 µM]	-7%	13%	-30%

Single records (already shown). Order of values: GLS inhibitor, ERG-DNA inh, HP1b chromo inh, PI4K2A inh, G9a inh, RGS4 inhibitor, ALOX12 inh, JMJD2A Tudor
Shown for CCOc1ccccc1NC(=O)CSc1nccn1-c1cccc(C)c1 → -1%, -2%, -25%[57 µM], -3, ?, -14%, -23%, ?
Shown for CC1Cc2ccccc2N1CC(=O)c1c(N)n(Cc2ccccc2)c(=O)n(C)c1=O (stereo not drawn) → 59%[activator], -5%, ?, 5, 40µM*, -5%, -19%, ?

(continued)
No.	Structure	GLS inhibitor	ERG-DNA inh	HP1b chromo inh	PI4K2A inh
31	Cc1cc(C(=O)COC(=O)c2ccc(O)cc2O)c(C)n1C(C)C	10%	2%	-19%	0
32	CCN1C(=NCc2cc(OC)c(OC)c(OC)c2)N[C@@H](c2ccccc2)C(C(=O)OC)=C1C	16%	9%	?	-1
33	COc1ccc(-c2cc(C(C)=O)c(C)n2CCC(=O)Nc2cc(C)ccc2OC)cc1	4%	8%	-8%	-4
34	C=CCN1C(=O)c2ccc(C(=O)N3CCN(S(=O)(=O)c4ccc(C(C)C)cc4)CC3)cc2C1=O	14%	6%	29%	-2
35	COc1cccc(N2CCN(C(=O)C3CCCN(c4ncnc5c4nc4n5CCCCC4)C3)CC2)c1 (stereo not drawn)	11%	5%	18%	-4
36	Cn1c(N2CCCC2)nc2c1c(=O)n(Cc1ccc(Cl)cc1)c(=O)n2C	13µM*	-1%	-6%	0
37	CCCCC(=O)Nc1cc(-c2nc3cccnc3s2)ccc1C	-1%	1%	-7%	2
38	Cc1c(NC(=O)c2ccccc2NC(=O)COc2ccccc2)cccc1C(=O)O	2%	-10%	20%	-5
39	COc1ccc(C(=O)NNC(=O)c2cnccn2)cc1[N+](=O)[O-]	·	0%	50%[activator]	-3
40	COc1ccc(NC(=O)C2CCN(Cc3cnn(-c4ccccc4)c3-n3cccc3)CC2)cc1OC	3%	14%	-13%	-3
41	CC(C)(C)C(=O)COC(=O)c1c2c(nc3ccccc13)CCC2	0%	-1%	25%	-4
42	CCCCSC1(SCCCC)N=C(N)C2(C#N)C(c3ccccc3)NC(C)=C(C)C12C#N (stereo not drawn)	2%	-3%	23%	2
43	O=C(O)CC/C(=N\Nc1ccc(S(=O)(=O)N2CCCC2)cc1[N+](=O)[O-])c1cccs1	5%	-3%	?	-3
44	COc1ccc(-c2cn(-c3ccc(C)cc3)c(=O)n2CC(=O)Nc2ccc(OC)cc2OC)cc1	4%	7%	?	-2
45	COCCN=c1scc(C)n1/N=C/C1CC2C=CC1C2 (stereo not drawn)	-15%	1%	9%	-4
46	Cc1cc(C(=O)COc2cccnc2[N+](=O)[O-])c(C)n1Cc1ccco1	3%	-15%	-20%	0
47	O=C(CSc1ccc2nnc(-c3ccccn3)n2n1)Nc1ccc(F)cc1F	14%	-9%	-4%	-2
48	COC(=O)c1cc2occc2n1Cc1cccc(C)c1	0%&0%	0%&-3%	10%&6%	2&1

No.	G9a inh	RGS4 inhibitor	ALOX12 inh	JMJD2A Tudor
31	7%[12.7 µM]	3%	?	?
32	-18%[12.7 µM]	?	·	?
33	?	-23%	-24%	?
34	-45%	6%	-31%	-20%
35	-10%	-5%[56.9 µM]	8%	-33%
36	?	-6%	10%	-33%
37	?	-2%	2%	?
38	11%	0%	1%	1%
39	?	-2%	11%	9%
40	-10%[59 µM]	15%	-2%	-33%
41	-44%	-6%	-28%	-31%
42	?	2%	?	-22%
43	14µM*	-10%	-5%	?
44	35µM*	-7%	-25%	?
45	50µM*	-36%	-4%	-28%
46	?	13%	3%	?
47	·	-41%	0%	?
48	56µM*	10%&12%	?	3%&1%

Screening results deposited in PubChem BioAssay by National Center for Advancing Translational Sciences (NCATS).
